KCNQ2 pot: enhances the rat KCNQ2 potassium channel | O88943 | CHO-K1 KCNQ2, FluxOR thallium flux fluorescence; active compounds read high | B-score at 10 µM | actives 0.54% (n = 310,000) | AID 2239;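 active = fluorescence ratio B-score at least 3 SD of library B-scores, with initial fluorescence B-score within 3 SD, cut at about 5.3 in these data; same plate scores as AID 2156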;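 also: B-score of peak minus minimum over baseline fluorescence ratio after K+ and Tl+ stimulus; positive B-score means potentiation of KCNQ2 with more thallium influx and brighter signal; only the inactives scoring about 0 or higher are listed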
Target sequence (O88943 whole entry, looked up): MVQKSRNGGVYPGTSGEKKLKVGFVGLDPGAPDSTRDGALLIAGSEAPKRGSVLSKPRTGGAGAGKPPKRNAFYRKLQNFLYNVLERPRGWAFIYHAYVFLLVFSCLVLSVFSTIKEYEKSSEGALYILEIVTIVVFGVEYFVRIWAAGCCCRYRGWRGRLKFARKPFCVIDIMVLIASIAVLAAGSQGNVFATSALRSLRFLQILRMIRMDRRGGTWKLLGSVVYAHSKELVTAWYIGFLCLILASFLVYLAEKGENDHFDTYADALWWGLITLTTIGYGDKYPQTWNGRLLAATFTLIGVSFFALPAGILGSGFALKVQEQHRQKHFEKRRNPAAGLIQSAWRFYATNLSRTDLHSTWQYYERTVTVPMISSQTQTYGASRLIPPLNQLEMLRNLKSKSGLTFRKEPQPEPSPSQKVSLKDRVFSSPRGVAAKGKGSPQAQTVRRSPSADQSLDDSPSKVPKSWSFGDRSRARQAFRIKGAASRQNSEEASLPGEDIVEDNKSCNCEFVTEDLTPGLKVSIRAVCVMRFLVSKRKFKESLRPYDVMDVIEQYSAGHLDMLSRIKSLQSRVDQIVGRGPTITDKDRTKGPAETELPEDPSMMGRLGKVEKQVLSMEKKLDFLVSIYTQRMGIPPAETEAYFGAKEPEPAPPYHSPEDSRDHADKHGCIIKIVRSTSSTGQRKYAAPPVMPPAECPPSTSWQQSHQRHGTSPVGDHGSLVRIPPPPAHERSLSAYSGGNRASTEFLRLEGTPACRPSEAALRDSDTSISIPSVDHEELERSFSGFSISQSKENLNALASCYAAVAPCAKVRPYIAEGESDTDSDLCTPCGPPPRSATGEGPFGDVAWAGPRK
KCNQ2 pot baseline: recorded beside KCNQ2 pot, whose call it bears; B-score; compound at 10 µM; measured here: initial fluorescence intensity artifact check;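 brightness before thallium and not channel activity; 0 = typical well and far values either way flag optical interference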
* hit, by the source's call. A portion of the library, so the mix of outcomes need not match the whole.

A first look:
How did Cc1cc(OCC(=O)NCCN2CCOCC2)cc(C)c1Cl do in these assays?
KCNQ2 pot: 0.38; KCNQ2 pot baseline: -2.2

How did COc1ccc(C(C#N)(CCC#N)CCC#N)cc1OC do in these assays?
KCNQ2 pot: 2; KCNQ2 pot baseline: 0.81

The list itself, repeating the preview:
How did Cc1cc(OCC(=O)NCCN2CCOCC2)cc(C)c1Cl do in these assays?
KCNQ2 pot: 0.38; KCNQ2 pot baseline: -2.2

How did COc1ccc(C(C#N)(CCC#N)CCC#N)cc1OC do in these assays?
KCNQ2 pot: 2; KCNQ2 pot baseline: 0.81

Results for CC(=O)Nc1ccc(NC(=O)[C@@H]2CCCC[C@@H]2C(=O)O)cc1 ?
KCNQ2 pot: 0.99; KCNQ2 pot baseline: -0.01

What do the screens show for `Cn1c(Cc2ccccc2)nnc1SCc1ccc(C(=O)O)cc1`?
KCNQ2 pot: 0.06; KCNQ2 pot baseline: -0.04

How did O=C(NCC1CCCO1)c1csc2c1CCCC2 (configuration not stated) do in these assays?
KCNQ2 pot: 1.1; KCNQ2 pot baseline: -0.02

How did O=C(CCc1nc2ccccc2c(=O)[nH]1)N1CCN(C/C=C/c2ccccc2)CC1 do in these assays?
KCNQ2 pot: 2.1; KCNQ2 pot baseline: -1.8

What do the screens show for `O=C1Cc2cc(S(=O)(=O)Nc3cccc([N+](=O)[O-])c3)cc3c2N1CCC3`?
KCNQ2 pot: 1.8; KCNQ2 pot baseline: -0.07

How did Cc1cc(Br)c(NC(=O)COC(=O)CSc2nnc(-c3ccc(Cl)cc3)o2)c(Br)c1 do in these assays?
KCNQ2 pot: 0.25; KCNQ2 pot baseline: -0.87

Results for Cc1ccc(NC(=O)c2ccc3ccccc3n2)nc1 ?
KCNQ2 pot: 1.2; KCNQ2 pot baseline: -0.78

Results for COC(=O)c1ccccc1C(=O)N1CCOCCN(C(=O)c2ccccc2C(=O)OC)CCOCC1 ?
KCNQ2 pot: 0.69; KCNQ2 pot baseline: -0.23

How did CC(C)NCCCOc1ccc(C(C)(C)c2ccccc2)cc1 do in these assays?
KCNQ2 pot: 2.8; KCNQ2 pot baseline: -0.12

Results for Cc1c(Cl)c([N+](=O)[O-])nn1CCCC(=O)Nc1cc(Oc2ccccc2)cc([N+](=O)[O-])c1 ?
KCNQ2 pot: 0.04; KCNQ2 pot baseline: -0.47

Results for O=C(O)CCC1(c2ccccc2)NC(=O)NC1=O (configuration not stated) ?
KCNQ2 pot: 0.55; KCNQ2 pot baseline: -1.3

What do the screens show for `C#CCOCCOCCOCCNc1nc(N2CCN(C(=O)[C@H](CCC(=O)O)n3cc(C(N)CO)nn3)CC2)nc(N2CCN(C(=O)[C@H](CCC(=O)O)n3cc(C(N)CC(C)C)nn3)CC2)n1` (some centres not stated)?
KCNQ2 pot: 0.03; KCNQ2 pot baseline: 0.02

How did NC(=O)CC(NC(=O)Cc1ccc(Br)cc1)c1ccc(N2CCC(N3CCCC3)CC2)c([N+](=O)[O-])c1 (configuration not stated) do in these assays?
KCNQ2 pot: 1.3; KCNQ2 pot baseline: 1.3

What do the screens show for `Cn1c(=O)c(C(=O)NCc2ccc(F)cc2)c(O)c2ccccc21`?
KCNQ2 pot: 0.12; KCNQ2 pot baseline: -0.6

What do the screens show for `COc1ccccc1NC(=O)CCC(=O)N/N=C(/C)c1ccc(C)cc1`?
KCNQ2 pot: 0.46; KCNQ2 pot baseline: -0.31

What do the screens show for `O=C(Nc1ccc(C(=O)NCCCN2CCCCC2)cc1)C1=CSCCO1`?
KCNQ2 pot: 2.1; KCNQ2 pot baseline: -1.2

Results for Nc1cc(N2CCCCC2)c(Cl)cc1[N+](=O)[O-] ?
KCNQ2 pot: 9.2*; KCNQ2 pot baseline: -3*

How did COC(=O)N/N=C/c1cc(C)n(-c2ccccc2)c1C do in these assays?
KCNQ2 pot: 0.66; KCNQ2 pot baseline: 0.06

Results for Cc1nc(Nc2ccncc2)c2oc3ccccc3c2n1 ?
KCNQ2 pot: 0.01; KCNQ2 pot baseline: 0.26

Results for O=C(c1ccc(S(=O)(=O)N2CCOCC2)cc1)N(c1ccccn1)C1CCCCC1 ?
KCNQ2 pot: 0.09; KCNQ2 pot baseline: 0.85

Results for COc1ccc(/C=N/N2CCN(c3ccncc3S(=O)(=O)N3CCCCC3)CC2)cc1 ?
KCNQ2 pot: 1.6; KCNQ2 pot baseline: 0.84

How did O=C(CC1C(=O)NCCN1C(=O)Nc1ccc(F)cc1)Nc1cc(Cl)ccc1Cl (configuration not stated) do in these assays?
KCNQ2 pot: 1.4; KCNQ2 pot baseline: 0.66

Results for Cc1ccc(NC(=O)CS(=O)CC(=O)NCC2OCCc3ccccc32)c(C)c1 (configuration not stated) ?
KCNQ2 pot: 1.6; KCNQ2 pot baseline: -0.29

What do the screens show for `CC(C)OC(=O)c1c(NC(=O)CCC(=O)O)sc2c1CCCCC2`?
KCNQ2 pot: 3.3; KCNQ2 pot baseline: -0.16

Results for NNc1ncnc2scc(-c3ccc(Cl)cc3)c12 ?
KCNQ2 pot: 1.1; KCNQ2 pot baseline: -1.3

How did O=C(c1ccc2c(=O)n3c(nc2c1)CCCCC3)N1CCN(Cc2ccccc2)CC1 do in these assays?
KCNQ2 pot: 0.45; KCNQ2 pot baseline: -0.01

How did COc1ccccc1CCC(=O)N1CCN(C(=O)c2ccccc2)CC1 do in these assays?
KCNQ2 pot: 0.19; KCNQ2 pot baseline: 1.1

Results for COC(=O)CNC(=O)CNC(=O)c1nn(-c2ccc(OC)c(Cl)c2)c(=O)c2ccccc12 ?
KCNQ2 pot: 0.65; KCNQ2 pot baseline: 1.7

What do the screens show for `Cc1ccc(C(=O)NCCN2CCOCC2)cc1S(=O)(=O)N1CCCCC1`?
KCNQ2 pot: 0.06; KCNQ2 pot baseline: 1

What do the screens show for `O=C(Oc1ccccc1)c1ccc2nsnc2c1`?
KCNQ2 pot: 0.8; KCNQ2 pot baseline: 0.21

What do the screens show for `O=C(Nc1ccc(C(=O)Oc2ccccc2)c(O)c1)c1ccco1`?
KCNQ2 pot: 0.95; KCNQ2 pot baseline: -1.4

Results for COc1cccc(CC(=O)Nn2c(C)nc3ccccc3c2=O)c1 ?
KCNQ2 pot: 2.3; KCNQ2 pot baseline: -0.73

Results for CC(C)OC(=O)c1cc(=O)[nH]c2ccccc12 ?
KCNQ2 pot: 0.81; KCNQ2 pot baseline: 0.7

What do the screens show for `CCn1c(=O)c2sccc2n(Cc2cccc(C)c2)c1=O`?
KCNQ2 pot: 0.14; KCNQ2 pot baseline: 1.5

Results for CCCCC1=C([O-])C2N=CC=CC2=[N+](c2ccccn2)C1=O (configuration not stated) ?
KCNQ2 pot: 1.2; KCNQ2 pot baseline: 0.27

How did Cc1ccc(NC(=O)N2CCC(C(=O)NCCC3=CCCCC3)CC2)cc1 do in these assays?
KCNQ2 pot: 0.73; KCNQ2 pot baseline: 0.41

What do the screens show for `Cc1onc(-c2ccccc2Cl)c1C(=O)Nc1cccnc1`?
KCNQ2 pot: 0.14; KCNQ2 pot baseline: -0.67

How did CCCOc1ccc(NC(=O)CC2C(=O)N(CC)C(=S)N2Cc2cccs2)cc1 (configuration not stated) do in these assays?
KCNQ2 pot: 0.13; KCNQ2 pot baseline: -1.4

Random excerpt: three compounds from above, in no set order.
Results for CCCCC1=C([O-])C2N=CC=CC2=[N+](c2ccccn2)C1=O (configuration not stated) ?
KCNQ2 pot: 1.2; KCNQ2 pot baseline: 0.27

What do the screens show for `CC(C)OC(=O)c1c(NC(=O)CCC(=O)O)sc2c1CCCCC2`?
KCNQ2 pot: 3.3; KCNQ2 pot baseline: -0.16

Results for COc1cccc(CC(=O)Nn2c(C)nc3ccccc3c2=O)c1 ?
KCNQ2 pot: 2.3; KCNQ2 pot baseline: -0.73

(continued)
What do the screens show for `C=CCNC(=O)/C(=C/c1cn(-c2ccccc2)nc1-c1cccc([N+](=O)[O-])c1)NC(=O)c1ccccc1`?
KCNQ2 pot: 0.89; KCNQ2 pot baseline: -1.3

Results for O=C(c1ccco1)N1CCN(S(=O)(=O)c2ccccc2[N+](=O)[O-])CC1 ?
KCNQ2 pot: 0.47; KCNQ2 pot baseline: -0.46

Results for CCOC(=O)C1=C(COC(=O)c2ccc(C)s2)NC(=O)NC1C (configuration not stated) ?
KCNQ2 pot: 2.3; KCNQ2 pot baseline: 0.79

What do the screens show for `CC(C)c1ccccc1OCCCCCN1CCOCC1`?
KCNQ2 pot: 0.53; KCNQ2 pot baseline: -0.19

How did CCOc1ccc2nc(N3CCCC(C(=O)NC4CCCC4)C3)sc2c1 (configuration not stated) do in these assays?
KCNQ2 pot: 0.95; KCNQ2 pot baseline: 1.7

Results for Cc1ccc(C(=O)N/C(=C/c2cn(-c3ccccc3)nc2-c2ccccc2)C(=O)O)cc1 ?
KCNQ2 pot: 3.4; KCNQ2 pot baseline: -1.3

How did O=C(CSc1nnnn1-c1ccccc1)CSc1nnnn1-c1ccccc1 do in these assays?
KCNQ2 pot: 0.02; KCNQ2 pot baseline: -1.8

How did CCN(CC)c1nc(C(N)=O)cc(-c2ccccc2)n1 do in these assays?
KCNQ2 pot: 0.04; KCNQ2 pot baseline: -0.38

Results for Cc1ccc(CNC(=O)C2CCC(=O)N(CCc3ccccn3)C2)s1 (configuration not stated) ?
KCNQ2 pot: 0.31; KCNQ2 pot baseline: 0.88

How did COC(=O)c1ccccc1S(=O)(=O)NNC(=O)c1ccccc1-n1cccc1 do in these assays?
KCNQ2 pot: 0.16; KCNQ2 pot baseline: 0.7

Results for Cc1ccc(S(=O)(=O)N(C(=O)c2ccncc2)c2ccc(OC(=O)c3ccncc3)cc2)cc1 ?
KCNQ2 pot: 1.1; KCNQ2 pot baseline: -0.49

How did CC(=O)c1ccc(NC(=O)c2ccc(CNc3c(N4CCOCC4)c(=O)c3=O)cc2)cc1 do in these assays?
KCNQ2 pot: 0.22; KCNQ2 pot baseline: -0.04

What do the screens show for `CCCCN1C(=O)C(O)(CC(=O)c2ccccc2OC)c2ccccc21` (configuration not stated)?
KCNQ2 pot: 0.66; KCNQ2 pot baseline: 0.5

Results for O=C(CCn1c(=S)oc2ccccc21)Nc1cccc(F)c1 ?
KCNQ2 pot: 1.4; KCNQ2 pot baseline: 0.03

What do the screens show for `CCCNS(=O)(=O)c1ccc(OCC(=O)Nc2ccc3c(c2)OCCO3)c(C)c1`?
KCNQ2 pot: 0.06; KCNQ2 pot baseline: 1.7

How did Cc1ccccc1NC(=O)CN1C(=O)COc2ccc(Cl)cc21 do in these assays?
KCNQ2 pot: 1; KCNQ2 pot baseline: 1.5

Results for COc1ccc(CC(=O)Nc2ccccc2C(=O)N2CCOCC2)cc1OC ?
KCNQ2 pot: 0.79; KCNQ2 pot baseline: -0.03

What do the screens show for `Cc1ccc(-c2csc(NC(=O)/C=C/c3ccco3)c2C(=O)O)cc1`?
KCNQ2 pot: 3.7; KCNQ2 pot baseline: 0

Results for CC1CCC(CN2C(Nc3ccccc3)=NC[C@@H]2C)CC1 (some centres not stated) ?
KCNQ2 pot: 0.71; KCNQ2 pot baseline: 0.4

What do the screens show for `O=C(CCc1nc2ccccc2c(=O)[nH]1)NNC(=O)c1ccccc1Cl`?
KCNQ2 pot: 0.71; KCNQ2 pot baseline: -0.64

Results for O=C(CCNC(=O)N1CCn2c1nc1ccccc12)NCc1ccccc1 ?
KCNQ2 pot: 0.57; KCNQ2 pot baseline: -0.1

How did COc1ccc(OC)c(/C=N/NC(=O)CN2CCSCC2)c1 do in these assays?
KCNQ2 pot: 0.05; KCNQ2 pot baseline: -2.1

How did Cc1ccc(Sc2cc(Cl)nc(N)n2)cc1 do in these assays?
KCNQ2 pot: 1.1; KCNQ2 pot baseline: -0.09

Results for COc1ccc(C(C)C)cc1S(=O)(=O)Nc1ncn[nH]1 ?
KCNQ2 pot: 0.86; KCNQ2 pot baseline: 0.62

How did CCOc1ccc(OCc2ccc(C(=O)N3CCCCC3)o2)cc1 do in these assays?
KCNQ2 pot: 0.18; KCNQ2 pot baseline: -0.27

What do the screens show for `Cc1csc(NC(=O)C2CC(=O)N(c3ccc(C)c(C)c3)C2)n1` (configuration not stated)?
KCNQ2 pot: 2.1; KCNQ2 pot baseline: -0.91

What do the screens show for `C=CCn1c(SCC(=O)Nc2ccc(OC)cc2)nnc1-c1cnccn1`?
KCNQ2 pot: 0.14; KCNQ2 pot baseline: -0.01

How did O=C(N/N=C\c1ccccn1)c1cccc(C(=O)N/N=C\c2ccccn2)n1 do in these assays?
KCNQ2 pot: 0.31; KCNQ2 pot baseline: -1.6

How did CC(=O)Nc1ncc(Cc2cc(Cl)ccc2Cl)s1 do in these assays?
KCNQ2 pot: 0.61; KCNQ2 pot baseline: -0.08

Results for NCCCn1c(C(=O)c2ccc(Cl)cc2)c2ccc(C(F)(F)F)cc2[n+]1[O-] ?
KCNQ2 pot: 0.96; KCNQ2 pot baseline: 0.63

How did O=C(Cn1c(C(F)(F)F)nc2ccccc21)Oc1cccc(C(F)(F)F)c1 do in these assays?
KCNQ2 pot: 0.1; KCNQ2 pot baseline: 1.7

Results for COc1ccc(OCCCNCCc2ccccc2)cc1 ?
KCNQ2 pot: 0.7; KCNQ2 pot baseline: 0

Results for Nc1cc(Cl)ccc1N1C(=O)CCC1=O ?
KCNQ2 pot: 0.12; KCNQ2 pot baseline: -1.7

Some of these compounds in order of number of heavy atoms, largest number first:
How did O=C(N/N=C\c1ccccn1)c1cccc(C(=O)N/N=C\c2ccccn2)n1 do in these assays?
KCNQ2 pot: 0.31; KCNQ2 pot baseline: -1.6

How did CCOc1ccc(OCc2ccc(C(=O)N3CCCCC3)o2)cc1 do in these assays?
KCNQ2 pot: 0.18; KCNQ2 pot baseline: -0.27

What do the screens show for `Cc1csc(NC(=O)C2CC(=O)N(c3ccc(C)c(C)c3)C2)n1` (configuration not stated)?
KCNQ2 pot: 2.1; KCNQ2 pot baseline: -0.91

Results for COc1ccc(OCCCNCCc2ccccc2)cc1 ?
KCNQ2 pot: 0.7; KCNQ2 pot baseline: 0

Assay outcomes from PubChem.
